SARS PLP yeast = qHTS of Yeast-based Assay for SARS-CoV PLP | S. cerevisiae expressing SARS-CoV PLpro, growth rescue; control for the full effect not named in the record | Potency, µM (titrated, usually from 32.9 µM), inactives show top-dose activity, positive = growth rescue | AID 485353, 2010 | 0.19% of 330,000 active; active means well fitted rising curve with a large enough effect; inconclusive means small, poorly fitted or top-dose-only effect; inactive means no such curve, though single readings can be large or run the other way; also: 0% is about no effect; nearly all actives have a fitted effect of over 55% in size; growth read by luminescence after 48 h
NS1 function inh = qHTS Assay for Inhibitors of Influenza NS1 Protein Function. Potency, µM (top dose mostly 46.1 µM), without a hit: top-dose activity, positive = more growth. S. cerevisiae slowed by influenza A NS1, growth recovery by OD600. 0.4% of 270,000 active. AID 2326, 2010; active means well fitted rising curve with a large enough effect; inconclusive means small, poorly fitted or top-dose-only effect; inactive means no such curve, though single readings can be large or run the other way; also: nearly all actives have a fitted effect of over 50% in size
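Read-out: OD600 growth recovery of NS1-expressing budding yeast. Cells grown overnight at 30C in -URA glucose medium, washed, resuspended and diluted 1:100 in 2% galactose assay medium, pH 6.0. Same strain lacking NS1 served as positive control.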
LASV entry inh = qHTS for Inhibitors of binding or entry into cells for Lassa Virus; Lassa virus pseudotype entry inhibition, cell reporter; control for the full effect not named in the record; Potency, µM (top dose mostly 37.9 µM), inactives show top-dose activity change, negative = inhibition, most hits filed as inhibitors; 1.2% of 300,000 active; AID 540256, 2011; active means well fitted inhibition curve with a large enough effect; inconclusive means small, poorly fitted or top-dose-only effect, or effect the other way; inactive means flat fitted curve, though single readings scatter; tested in HEK293 cells; also: % is scaled to controls: 0 for no effect and ±100 for the full control effect; nearly all actives have a fitted effect of over 50% in size; luciferase read-out
MARV entry inh = qHTS for inhibitors of binding or entry into cells for Marburg Virus | Potency, µM (highest dose often 37.8 µM), for the others: top-dose activity change, negative = inhibition, most hits filed as inhibitors | 1.8% of 300,000 active | Marburg virus pseudotyped entry inhibition, cell reporter; control for the full effect not named in the record; about a third of the inactives were read at about 46 µM; active = well fitted inhibition curve with a large enough effect; inconclusive = small, poorly fitted or top-dose-only effect, or effect the other way; inactive = flat fitted curve, though single readings scatter; tested in HEK293 cells; about a fifth of its hits are not listed in these tables; also: % is scaled to controls: 0 for no effect and ±100 for the full control effect; luciferase read-out
Cruzain inh Det = qHTS Assay for Promiscuous and Specific Inhibitors of Cruzain (with detergent). AID 1478, 2009. Potency, µM, for inactives: max response, negative = inhibition, hits mostly inhibitors. 0.43% of 200,000 active. Cruzipain (Trypanosoma cruzi), P25779. purified cruzain, Z-FR-AMC fluorescence, 0.01% Triton;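 also: plate controls were neutral wells for no effect and buffer without enzyme for full effect; nearly all actives have a fitted effect of over 40% in size; top concentration of the series not given in the record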
Target sequence (P25779 123-467 limits assumed): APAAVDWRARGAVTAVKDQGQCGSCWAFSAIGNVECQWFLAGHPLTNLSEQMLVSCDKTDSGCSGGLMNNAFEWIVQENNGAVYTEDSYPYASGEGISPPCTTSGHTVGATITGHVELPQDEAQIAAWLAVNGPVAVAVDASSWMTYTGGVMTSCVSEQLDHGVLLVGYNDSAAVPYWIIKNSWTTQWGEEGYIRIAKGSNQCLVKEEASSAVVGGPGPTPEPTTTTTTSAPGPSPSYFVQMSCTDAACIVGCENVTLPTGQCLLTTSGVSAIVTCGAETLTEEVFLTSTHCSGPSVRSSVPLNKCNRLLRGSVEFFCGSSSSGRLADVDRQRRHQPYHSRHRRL
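Cruzain (1.5 nM) preincubated 15 min at RT with compound in 100 mM sodium acetate pH 5.5, 5 mM DTT, 0.01% Triton X-100. Reaction started with 2 uM Z-FR-AMC; AMC fluorescence (ex 360/em 450 nm) change over 60 s gave rate.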
RE007 growth inh = qHTS Assay for Inhibitors of the HIV-1 protein Vpr | S. pombe RE007 Vpr strain, BacTiter-Glo ATP luminescence, 24 h; control for the full effect not named in the record | Potency, µM (top dose mostly 92.2 µM), inactives show top-dose activity change, negative = less growth | AID 651644, 2012 | 0.21% of 360,000 active; active = well fitted falling curve with a large enough effect; inconclusive = small, poorly fitted or top-dose-only effect; inactive = no such curve, though single readings can be large or run the other way;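 also: % is scaled to controls: 0 for no effect and ±100 for the full control effect; nearly all actives have a fitted effect of over 50% in size; the assay follows cell death caused by Vpr and the record does not say whether a fall means rescue or toxicity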
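Fission yeast RE007 carrying one integrated HIV-1 vpr copy, seeded at OD 0.01 in PMG+AL medium with 23 nL pinned compound. Grown 24 h at 30 degrees; viability read by BacTiter-Glo luminescence after 5 min.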
2A StopGo = High Throughput Screening for Foot and Mouth Disease Virus Antivirals; human cells with a luciferase reporter of 2A StopGo recoding; control for the full effect not named in the record; Potency, µM (series often up to 57.9 µM), inactives show at the top dose signal change, negative = less light; 1.2% of 410,000 active; AID 1159524, 2015; active = well fitted falling curve with a large enough effect; inconclusive = small, poorly fitted or top-dose-only effect; inactive = no such curve, though single readings can be large or run the other way; tested in HEK293T cells; also: % is scaled to controls: 0 for no effect and ±100 for the full control effect; nearly all actives have a fitted effect of over 45% in size; luciferase light after 4 h
Cruzain inh noDet = qHTS Assay for Promiscuous and Specific Inhibitors of Cruzain (without detergent); Cruzipain (Trypanosoma cruzi), P25779; Potency, µM, without a hit: max response, negative = inhibition, most hits filed as inhibitors; 2.3% of 200,000 active; purified cruzain, Z-FR-AMC fluorescence, no detergent;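 also: plate controls were enzyme without inhibitor for no effect and buffer without enzyme for full effect; nearly all actives have a fitted effect of over 40% in size; top concentration of the series not given in the record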
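Detergent-free condition (0.00005% Triton X-100) in acetate buffer pH 5.5 with DTT. 1.5 nM enzyme and compound were pre-mixed 15 min, then 2 uM Z-FR-AMC substrate added; reaction progress from fluorescence change between first and third reads (60 s).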
Starred values were filed as active, the others as inactive; ? = inconclusive; . = no result given; & = joins results of further samples; [ ] = another dose, or the depositor's remark. Unless noted, calls follow the shape of the dose curve; as a rule, active = well fitted curve in the direction sought with a large enough effect; inconclusive = small, poorly fitted or top-dose-only effect, or another doubt; inactive = no such curve, though single readings can be large; an effect the other way counts as inactive or inconclusive. Potency is read from the fitted curve at half-maximal effect.

SMILES	SARS PLP yeast	NS1 function inh	LASV entry inh	MARV entry inh	Cruzain inh Det	RE007 growth inh	2A StopGo	Cruzain inh noDet
CCn1c(SCC(=O)N/N=C/c2cc(OC)c(O)c(OC)c2)nc2ccccc21	14%	-7%	-1%	2%	-8.5%	10%	-17%	3%
CCOC(=O)Cc1csc(NC(=O)c2cccc([N+](=O)[O-])c2)n1	1%	-5%	.	.	.	-18%	?	.
O=C(NCCc1cccc(F)c1)C1CCC(=O)N(C2CCCCCC2)C1 (stereo not given)	-1%	-12%	.	.	.	-9%	-1%	.
O=C(COc1ccccc1CNCc1ccccc1)Nc1ccccc1	-2%	-9%	-3%	?	8.4%	-6%	-18%	1%
CCOC(=O)c1nnn(CC(=O)Nc2cc(F)ccc2F)c1C(=O)OCC	-1%	-1%	19%	15%	1.4%	-1%	0%	4%
CC1=NN(c2ccc(C)cc2)C(=O)/C1=C/c1ccc(-c2cc([N+](=O)[O-])ccc2O)o1	4%	18%	.	.	.	5%	-6%	.
COc1ccccc1NC(=O)C1CCCN1S(=O)(=O)c1cccc2nsnc12 (stereo not given)	-6%	4%	.	.	.	-10%	-15%	.
O=C1CCc2cc(S(=O)(=O)Nc3ccccc3)cc3c2N1CCC3	3%	.	21%	-12%[46.1 µM]	.	8%	13%	.
OCc1cn(-c2ccccc2)nc1-c1cccnc1	-1%	9%	-14%	-1%	-4.4%	1%	5%	-3%
CCOc1cc(N2CCOCC2)c(OCC)cc1NC(=O)c1nc2nc(C)cc(C)n2n1	0%	3%	7%	1%&1%	-1.2%	-2%	-25%	?
CC(C)Oc1ccc(C(CCNCc2ccc(O)cc2)c2ccccc2)cc1 (stereo not given)	-2%	-3%	.	.	.	6%	-14%	.
Cc1ccccc1N(C)S(=O)(=O)c1ccc2[nH]cc(C(=O)NCC3CCCO3)c(=O)c2c1 (stereo not given)	0%	-4%	27%[14.3 µM]	22%	-6.2%	1%	?	?
COc1cc([N+](=O)[O-])ccc1N	15%	-5%	0%	?	-2.4%	-26%	15%	-2%
CC1CN(S(=O)(=O)c2cc(C(=O)N(C)Cc3cccs3)ccc2Cl)CC(C)O1 (stereo not given)	-1%	.	-15%	-3%	.	-15%	-11%	.
Clc1ccccc1OCCSc1nnc(-c2cccs2)o1	.	.	0%[46.1 µM]	?	-3.5%	.	12%	5%
CCc1ccc(-c2cc(C)no2)cc1S(=O)(=O)N1CCN(c2ccccc2)CC1	-6%	12%	-18%[46.1 µM]	?	.	-3%	-25%	.
O=C(COC(=O)CC(c1ccccc1)c1ccccc1)Nc1cccc(F)c1	-6%	-34%	-14%	?	-8.8%	11%	-18%	3%
Cc1cccc(-n2ccc(=O)c(C(=O)Nc3ccc(S(=O)(=O)Nc4onc(C)c4C)cc3)n2)c1	2%	-17%	7%[46.1 µM]	0%[46.1 µM]	.	10%	0%	.
O=C(Nc1ccccc1N1CCCCC1)c1cccc(F)c1	-12%	-114%	-4%	1%	-2.2%	-5%[3.69 µM]	-27%	-5%
O=C(NNC(=O)c1cccs1)c1ccc2ccccc2c1	-2%	1%	12%	11%[46.1 µM]	.	9%	65%[activator]	.
COc1ccc(S(=O)(=O)N2CCC(C(N)=O)CC2)cc1C(=O)N1CCCCCC1	3%	4%	-7%	-19%[46.1 µM]	.	-12%	31%[activator]	.
Cc1cc2cc(CNC(=O)c3ccco3)ccc2n1C	0%	-4%	.	.	.	1%	74%[activator]	.
Cc1cnc(NC(=O)c2c(Cl)cnn2C)s1	-8%	-7%	.	.	.	-17%	1%	.
Cn1c(CNC(=O)Nc2ccccc2)nnc1SCc1ccccc1	-10%	-5%	19%	-4%[46.1 µM]	-1.0%	9%	0%	1%
COC(=O)c1ccc(OC)c(CSc2nnc(COc3cccc(C)c3)o2)c1	-13%	-48%	0%	16µM*	-2.1%	8%	-23%	1%
COC(=O)c1ccc(-n2nnnc2SCC(=O)NCc2cccc(C(=O)O)c2)cc1	1%	?	?	21%	4.8%	-2%	-9%	-4%
CCCCC(=O)Nc1ccc2c(c1)nc(CN1CCN(C(=O)OCC)CC1)n2C	1%	4%	.	.	.	-4%	-11%	.
O=[N+]([O-])c1cc(Cl)ccc1NCCNS(=O)(=O)c1ccccc1	-18%	12%	18%	-1%	-11%	1%	28%	8%
CCc1cc(=O)oc2cc(C)c3c(C)coc3c12	-7%	-5%	14%	?	4.7%	-6%	3%	-18%
COc1ccc(-c2nc(C)c(CCNS(=O)(=O)c3cc(C)c(C)cc3C)s2)cc1	.	.	-20%[46.1 µM]	.	-4.2%	.	53%[activator]	8%
O=C(COc1ccccc1F)Nc1nc(-c2ccccn2)cs1	?	.	-26%[46.1 µM]	?	.	?	-2%	.
COc1ccc(CNC(=O)C/C(C)=N/NC(=O)Cc2ccc(OC)cc2)cc1	-4%	17%	-12%	5%	-0.4%	2%	-6%	-10%
Cn1c(CNC(=O)CCNC(=O)c2cccc(F)c2)cc(=O)n(C)c1=O	1%	-9%	.	.	.	11%	-14%	.
CC(=O)Nc1ccc(OC(=O)c2ccco2)cc1	8%	-12%	5%	-6%	5.4%	-8%	.	0%
COc1ccc(N(CC(=O)Nc2ccc(C)cc2C)S(=O)(=O)c2ccccc2[N+](=O)[O-])c(OC)c1	13%	15%	-22%	?	.	3%	28%	.
COc1ccc(NC(=O)Cn2nnc(-c3ccccc3NS(=O)(=O)c3ccc(OC)cc3)n2)cc1	22%	-9%	?	?	4.5%	-10%	-20%	3%
Cc1ccccc1NC(=O)c1sc2nc3c(c(-c4ccco4)c2c1N)CCCC3	-12%	2%	-18%	-24%	-4.6%	18%[3.69 µM]	-27%	?
Cc1[nH][nH]c(=O)c1C(c1c(C)[nH][nH]c1=O)c1cn(Cc2ccc(F)cc2)c2ccccc12	-25%	21%	-29%	-20%	-6.0%	6%	?	13%
Cc1ccc(C(=O)Oc2coc(CSc3nnc(NC(=O)C4CC4)s3)cc2=O)cc1C	-13%	-16%	1%	?	-7.8%	0%	5%	-10%
O=c1ccnc(SCCC(F)=C(F)F)[nH]1	1%	.	-5%[46.1 µM]	16%[46.1 µM]	.	-20%	-7%	.
O=C(NNC(=O)c1cc2ccccc2cc1O)Nc1ccc(Br)cc1	-4%	-6%	-6%	9%	.	1%	9%	.
CCCc1nn2c(=O)cc(COC(=O)c3ccccc3NC(=O)COc3ccccc3F)nc2s1	.	.	3%[46.1 µM]	.	-1.0%	.	?	-12%
O=C(Nc1cccc(Cl)c1)Nc1nnc(-c2ccncc2)s1	7%	-24%	?	?	0.9%	-3%	?	4%
Fc1cc2nc(-c3ccncc3)[nH]c2cc1F	2%	-58%	1%	16%	-4.4%	-5%	23%	-3%
CC(=O)Nc1ccc(/C(C)=N/NC(=O)c2ccc(F)cc2)cc1	3%	-12%	?	17%	-4.1%	-9%	-8%	-22%
CCCN1CN(Cc2ccco2)c2nc3ccccc3n2C1	10%	-50%	0%	-1%	-2.1%	-6%	38%[activator]	-9%
Cc1cc(NC(=O)CSCC(=O)N(c2ccc(F)cc2)C(C(=O)NC2CCCCC2)c2ccc(O)c(O)c2)no1 (stereo not given)	0%	5%	?	2%	-1.9%	5%	-11%	-9%
CCOC(=O)c1ccccc1N1C(=O)CSC1=S	-8%	28%	-2%	-19%	1.5%	-29%	.	13%
COc1ccc(CCC(=O)NCCS(=O)(=O)N2CCN(c3ccc(F)cc3)CC2)cc1	-2%	.	-23%	-23%[46.1 µM]	.	-8%	-23%	.
O=C(CSc1nnnn1-c1cccnc1)Nc1cccc(Cl)c1	1%	-24%	-1%[46.1 µM]	1%[46.1 µM]	.	8%	-6%	.
More structures follow:
SMILES	SARS PLP yeast	NS1 function inh	LASV entry inh	MARV entry inh	Cruzain inh Det	RE007 growth inh	2A StopGo	Cruzain inh noDet
COC(=O)c1ccc(N2CCS(=O)(=O)CC2)cc1	1%	.	9%[46.1 µM]	9%[46.1 µM]	.	2%	-21%	.
COc1ccc(C(=O)NNC2=CC(=O)CC(C)(C)C2)cc1	-2%	4%	-1%	16%	-1.0%	3%	-9%	1%
CC1CC(=O)c2cnc(Nc3cccc(C(F)(F)F)c3)nc2C1 (stereo not given)	3%	15%	7%	-3%	-3.0%	-11%	15%	8%
COc1cccc2sc(=NC(=O)CS(=O)(=O)c3ccc(Cl)cc3)n(C)c12	-2%	.	-15%	-17%[46.1 µM]	.	1%	?	.
O=C1CCCC2=C1C(c1ccc3c(c1)OCO3)c1c([nH]n(-c3ccccc3)c1=O)N2 (stereo not given)	2%	9%	8%	?	-5.1%	-3%	116%[activator]	3%
COc1ccccc1N1CCN(C(=O)C2CCN(S(=O)(=O)c3cnc[nH]3)CC2)CC1	.	.	14%[46.1 µM]	8%[46.1 µM]	-0.5%	.	-18%	4%
Cc1ccc2nc(NCc3ccccc3)c3nncn3c2c1	.	.	.	-1%[46.1 µM]	-1.1%	.	6%	-2%
COc1ccc(C(=O)Cc2cnn(-c3ccccc3)c2)c(O)c1	7%	0%	12%	?	-5.8%	-5%	25%	4%
COc1cc(/C=N/NC(=O)c2ccc(COc3cc(C)ccc3C(C)C)cc2)cc(OC)c1O	-49%	27%	?	?	-4.8%	32%	?	?
O=C(NCCc1ccccc1)c1ccc(=O)oc1	-1%	-1%	-10%	4%	-7.1%	0%	2%	-7%
Cc1ccc(OCc2nnc(SCC(=O)O)n2-c2ccccc2)cc1	.	.	-9%	11%	.	-8%	0%	.
O=C(NC1CCCCC1)c1ccc(Cn2cc(Cl)cn2)cc1	0%	-2%	-19%	-18%	-2.8%	19%	11%	4%
Cc1nc(-c2cccc(Br)c2)ccc1C(=O)O	1%	.	23%	-20%	.	-3%	19%	.
Cc1ccc(NC(=O)CN2CCN(Cc3ccccc3)CC2)cc1F	0%	-1%	1%[46.1 µM]	?	.	10%	-2%	.

Source: PubChem BioAssay
